Assay outcomes from PubChem BioAssay.
Mtb H37Rv – M. tuberculosis H37Rv growth inhibitors, H37Rv strain (AID 1626) | M. tuberculosis H37Rv growth inhibition; higher % means a stronger effect | inhibition, % at 10 µM, or IC50 in µM where a hit was titrated | 220,000 tested, 0.95% active;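 active means confirmed in a dose series; inconclusive means inhibition above 80% but not taken into the dose series; inactive means below 80% or under 30% at every dose of the series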;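 further: bacteria incubated seven days before Alamar blue readout; 0% = bacteria only wells and 100% = bacteria with antibiotic wells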
YopH PTP inh – YopH (Yersinia) phosphatase inhibition; inhibition, %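 (about 10 µM by stock and volumes)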; AID 898; fluorescence Ex485/Em525; 140,000 tested, 0.16% active;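 active means inhibition of 50% or more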;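 further: controls were vehicle for no effect and minimum signal wells for full effect; inactives centre near -20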
RecA intein inh – blocks M. tuberculosis RecA intein splicing; inhibition, %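 (about 9 µM by stock and volumes)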; P9WHJ3; cell-free RecA intein splicing, fluorescence; 290,000 tested, 0.75% active; in the data active means inhibition above about 30%; inconclusive means no clear call, values can overlap the other calls;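 further: 0% = vehicle wells and 100% = reference inhibitor control wells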
Target sequence (P9WHJ3 whole entry, looked up): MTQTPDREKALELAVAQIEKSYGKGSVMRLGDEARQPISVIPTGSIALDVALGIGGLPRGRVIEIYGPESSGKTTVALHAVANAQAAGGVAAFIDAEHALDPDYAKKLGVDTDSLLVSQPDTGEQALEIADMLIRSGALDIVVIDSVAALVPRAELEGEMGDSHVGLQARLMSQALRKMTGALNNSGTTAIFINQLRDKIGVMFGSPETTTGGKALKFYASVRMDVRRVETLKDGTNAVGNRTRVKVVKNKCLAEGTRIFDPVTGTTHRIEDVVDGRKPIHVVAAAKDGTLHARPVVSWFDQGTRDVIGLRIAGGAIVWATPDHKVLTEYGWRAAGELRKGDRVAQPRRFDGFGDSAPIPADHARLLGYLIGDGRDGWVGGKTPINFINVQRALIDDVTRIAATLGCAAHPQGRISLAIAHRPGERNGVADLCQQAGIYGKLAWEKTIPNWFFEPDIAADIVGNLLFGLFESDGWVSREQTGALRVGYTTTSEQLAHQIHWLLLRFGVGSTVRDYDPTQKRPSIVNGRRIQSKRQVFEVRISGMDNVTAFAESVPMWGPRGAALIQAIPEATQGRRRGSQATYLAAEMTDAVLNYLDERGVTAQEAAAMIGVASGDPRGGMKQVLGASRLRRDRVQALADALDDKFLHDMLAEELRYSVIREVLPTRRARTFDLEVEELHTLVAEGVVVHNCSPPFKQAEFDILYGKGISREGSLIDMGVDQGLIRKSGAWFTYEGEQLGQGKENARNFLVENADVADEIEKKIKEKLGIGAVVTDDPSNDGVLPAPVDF
Arbovirus anti – blocks arbovirus infection; arbovirus infection cell-based antiviral screen; inhibition, % at 10 µM; 200,000 tested, 0.37% active;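 active means inhibition from about 30%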;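 further: bluetongue infection of BSR cells; cell survival read as ATP light after 72 h; 0% = infected wells without compound and 100% = uninfected wells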
Mtb bLac sens – beta-lactam sensitization of Mtb H37Rv. M. tuberculosis H37Rv growth with meropenem, percent inhibition; hits of this screen are not shown here. inhibition, % at 25 µM. 330,000 tested, 0.27% active;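 active means about 74% or more and at least 40 points above the plate without the antibiotic, then above 30% in a dose series; inconclusive means first-round hits that could not be retested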;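 further: growth measured after seven days incubation then overnight dye step; 0% = bacteria only wells and 100% = bacteria with antibiotic; twin plates without the antibiotic show which effects depend on it; some results filed as inactive read as strong as hits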
Arbovirus anti repeat – further read-out of Arbovirus anti, marked with its call; inhibition, %; measured here: 10K subset replicate screen; many hits read low in the repeat;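 first of two repeat runs on a subset; 0% = infected and 100% = uninfected wells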
* hit, by the source's call; u = inconclusive; x = no result given.

SMILES	Mtb H37Rv	YopH PTP inh	RecA intein inh	Arbovirus anti	Mtb bLac sens	others
CCCc1nnc(NC(=O)c2cccs2)s1	-12%	-43	1.3	4	-6
CCOC(=O)c1[nH]c(C(=O)O)c(CCC(=O)OC)c1C	-4%	11	-2.5	9	2
O=S(=O)(c1ccc(F)cc1)c1nc(-c2ccccc2)oc1N1CCOCC1	x	x	2.4	x	u
CC(=O)NC(C(=O)OCC(=O)N(c1ccccc1)c1ccccc1)C(C)C (configuration not stated)	-6%	x	-1.1	x	-12
Cc1cc(C)c2c(n1)sc1c(=O)n(CC(=O)c3ccccc3)cnc12	-1%	x	-2.1	x	3
Cc1cc(NC(=O)CSc2ccc3nnc(-c4cccnc4)n3n2)no1	-4%	-28	-0.3	2	2
CCCCSc1nc(O)c(Cc2ccccc2)c(=O)[nH]1	-9%	3	0.4	13	1
O=C(COC(=O)c1ccc(CNS(=O)(=O)c2ccc(F)c(Cl)c2)cc1)NC1CCCCCCC1	4%	-20	-14	5	21
CC(=O)Nc1ccccc1C(=O)C(=O)Nc1cccc(C(=O)NC2CC2)c1	-3%	-22	1.3	0	1
Cc1cccc(C(C)C)c1NC(=O)CN(C)Cc1cccc(F)c1	7%	-10	2.5	3	2
CC(OC(=O)CCC(=O)c1ccccc1)C(=O)Nc1ccc(F)cc1 (configuration not stated)	x	x	-0.7	x	-11
O=C(Nc1ccccc1)Nc1nnc(-c2cccs2)s1	-1%	-29	-0.2	-6	-7
CCOC(=O)N1CCN(C(=O)c2ccc(C#CC3(O)CCCCC3)cc2)CC1	x	11	1.0	13	-10
COC(=O)c1ccccc1NC(=O)c1cn(-c2ccc(C)c(C)c2)c(=O)c2ccccc12	18%	-7	-1.2	1	-1
COc1ccc(NC(=O)CN(C)C(=O)c2cccc(-n3cccc3)c2)cc1	x	x	-0.5	x	4
O=C(Nc1ncc(Br)s1)C(Cc1ccccc1)n1cccc1 (configuration not stated)	11%	-14	16	-9	0	Arbovirus anti repeat=-19
Cc1ccc(C2=Nc3ccccc3N(C(=O)c3ccccc3)C(C)C2)cc1 (configuration not stated)	-2%	-22	-3.2	-2	-4
O=P(OC1CCS(=O)(=O)C1)(c1ccccc1)c1ccccc1 (configuration not stated)	-7%	-26	2.2	-2	6
COc1ccc(NC(=O)c2ccc(-c3nn(C)c(=O)c4ccccc34)cc2)cc1	0%	x	-1.0	-15	-2
CCCNC(=O)Nc1cccc(C(=O)OC)c1	x	x	4.3	x	-7
CCn1c(SCC(=O)c2ccc(Cl)cc2)nnc1-c1cccs1	-1%	-22	2.9	2	-2
COc1ccc(C(C)=O)cc1COC(=O)CNC(=O)c1ccccc1F	7%	-29	-0.5	-9	7
Cc1c(NS(C)(=O)=O)cccc1-c1nc2cccnc2s1	-11%	x	-2.1	x	-2
CC(=O)c1ccc(NC(=O)c2ccc(CNc3c(N4CCCC4)c(=O)c3=O)cc2)cc1	2%	x	0.8	x	2
CC(C)NC(=O)CN(Cc1ccc(F)cc1)C(=O)CCC(=O)Nc1ccccn1	x	x	-4.4	x	-10
Cc1ccnc(NC(=O)c2ccc3c(c2)C(=O)N(CC(C)C)C3=O)c1	x	x	1.6	x	33
COc1cc(NC(=S)NC(=O)c2ccccc2F)ccc1NC(=O)c1ccco1	13%	-35	0.0	3	-7
Cc1ccc(S(=O)(=O)N2CN(Cc3ccco3)c3nc4ccccc4nc32)cc1	0%	-31	3.3	4	-7
C[C@H](C(=O)O)c1cccc(C(=O)c2ccccc2)c1	x	x	1.5	x	2
CCCc1c(C(=O)NNc2ccc(C)cc2)cnn1-c1ccccc1	73%	x	17	x	94

A draw from above in order of count of non-hydrogen atoms, largest number first.
SMILES	Mtb H37Rv	YopH PTP inh	RecA intein inh	Arbovirus anti	Mtb bLac sens	others
COc1ccc(NC(=O)CN(C)C(=O)c2cccc(-n3cccc3)c2)cc1	x	x	-0.5	x	4
CCCc1c(C(=O)NNc2ccc(C)cc2)cnn1-c1ccccc1	73%	x	17	x	94
O=P(OC1CCS(=O)(=O)C1)(c1ccccc1)c1ccccc1 (configuration not stated)	-7%	-26	2.2	-2	6
O=C(Nc1ccccc1)Nc1nnc(-c2cccs2)s1	-1%	-29	-0.2	-6	-7
CCCNC(=O)Nc1cccc(C(=O)OC)c1	x	x	4.3	x	-7

Compounds above containing a furan ring, fused or not, in the order listed:
SMILES	Mtb H37Rv	YopH PTP inh	RecA intein inh	Arbovirus anti	Mtb bLac sens	others
COc1cc(NC(=S)NC(=O)c2ccccc2F)ccc1NC(=O)c1ccco1	13%	-35	0.0	3	-7
Cc1ccc(S(=O)(=O)N2CN(Cc3ccco3)c3nc4ccccc4nc32)cc1	0%	-31	3.3	4	-7

(listing goes on)
SMILES	Mtb H37Rv	YopH PTP inh	RecA intein inh	Arbovirus anti	Mtb bLac sens	others
CCCCNC(=O)c1onc(CSc2ccc(F)c(F)c2)c1C(=O)NCCCC	6%	x	3.6	x	-3
Cc1ccc(NC(=O)Nc2cccc(F)c2)nc1	x	x	0.0	x	4
Cn1cc(C(=O)NC2CC2)c2ccccc21	x	x	0.2	x	3
Cc1cc(O)cc(O[C@H]2OC(CO)[C@H](O)[C@@H](O)[C@H]2O)c1 (some centres not stated)	-4%	-13	-0.3	-1	-5
COc1ccc(C2(C)NC(=O)N(CC(=O)Nc3ccc(-c4nc5ccc(C)cc5s4)cc3)C2=O)cc1 (configuration not stated)	9%	x	-3.0	-13	-8
COCCCN1C(=O)/C(=C\c2ccc3c(c2)OCO3)C(C(=O)OC)=C1C	2%	x	x	2	-4
C/C(=N/NC(=O)c1ccc2c(c1)OCO2)c1ccc(Br)s1	79%	x	-1.1	-15	35
Cc1ccc(S(=O)(=O)N2CCN(C(=O)COC(=O)c3ccc(Br)o3)CC2)c(C)c1	x	x	0.8	x	1
CCOc1ccccc1N(CC(=O)NCCSc1ccccc1)S(C)(=O)=O	-3%	x	1.5	-3	0
O=C1CCCN=C(Nc2ccc(F)c(Cl)c2)S1	5%	x	1.9	x	0
Cc1cccnc1CN1CCN(Cc2nc(Cc3cccc(F)c3)no2)CC1	-3%	x	0.9	2	13
Cn1sc(NC(=O)c2cccc(Cl)c2)nc1=O	1%	-35	6.7	24	6
CCC(C)[C@H](NC(=O)C1CC(=O)N(c2ccc3c(c2)OCO3)C1)C(=O)NC1CCCCC1 (some centres not stated)	x	x	-0.8	x	2
COc1ccc(-n2c(SCc3cn4c(C)cccc4n3)nc3ccccc3c2=O)cc1OC	2%	x	1.8	-10	14
CCOC(=O)Cn1c(=N)n(CCOc2ccc3ccccc3c2)c2ccccc21	0%	-9	-0.8	-6	-10

Three entries picked at random from those above, as already listed:
SMILES	Mtb H37Rv	YopH PTP inh	RecA intein inh	Arbovirus anti	Mtb bLac sens	others
COc1ccc(C2(C)NC(=O)N(CC(=O)Nc3ccc(-c4nc5ccc(C)cc5s4)cc3)C2=O)cc1 (configuration not stated)	9%	x	-3.0	-13	-8
Cc1cccnc1CN1CCN(Cc2nc(Cc3cccc(F)c3)no2)CC1	-3%	x	0.9	2	13
Cn1sc(NC(=O)c2cccc(Cl)c2)nc1=O	1%	-35	6.7	24	6

The listing continues:
SMILES	Mtb H37Rv	YopH PTP inh	RecA intein inh	Arbovirus anti	Mtb bLac sens	others
NS(=O)(=O)c1ccc(NC(=O)/C=C/c2cccs2)cc1	-2%	x	-1.2	x	-4
CCc1nc(SCc2ccccc2)n[nH]1	x	x	0.8	x	8
Cc1ccc(SCC(=O)NC(=O)Nc2ccc3c(c2)OCCO3)c(C)c1	1%	-22	2.7	-9	0
Fc1ccc(CNC(=S)NCc2ccc(F)cc2)cc1	1%	x	x	x	-11
COc1ccc(-c2nnn(CC(=O)N(Cc3ccc(F)cc3)C(C(=O)NC3CCCC3)c3ccc(F)cc3)n2)cc1 (configuration not stated)	-7%	-21	-0.4	x	4
CC(C)[C@H](NC(=O)[C@@H]1CSC2c3ccccc3C(=O)N21)C(=O)N1CCCCC1 (some centres not stated)	x	x	-1.0	x	-5
COc1ccc(C2SCCN2C(=S)Nc2cccc(Cl)c2)cc1 (configuration not stated)	7%	-5	3.1	15	10
COc1ccc(C(CCNCc2ccc(F)cc2)c2ccc(F)cc2)cc1 (configuration not stated)	5.7µM*	-22	11	-32	99
NC1=NC(c2ccc([N+](=O)[O-])cc2)N(c2ccc(F)cc2)C(N)=N1 (configuration not stated)	x	x	3.5	x	-9
CCOC(=O)C1CCCN(C2=NC(=O)/C(=C/c3ccc(N(C)C)cc3)S2)C1 (configuration not stated)	x	x	-23	x	6
CCCc1nc2ccccc2c(=O)n1NC(=O)c1c(O)c2ccccc2[nH]c1=O	-2%	-1	-6.4	6	18
O=C(CCc1nc(-c2ccccc2Cl)no1)NCCc1ccccc1	x	x	4.2	x	0
O=C(O)c1cccc(S(=O)(=O)N2CCCC(c3nc4c(nnn4Cc4ccc(F)cc4)c(=O)[nH]3)C2)c1 (configuration not stated)	x	x	-1.2	x	-2
O=C1CCC/C1=C/Nc1ccc2c(c1)OCO2	13%	6	-2.1	-28	94
O=C(Oc1ccc(=O)n(-c2ccccc2)n1)c1ccccc1	-10%	3	1.1	-2	-2
COC(=O)c1sccc1-c1ccc(C(=O)Nc2cccnc2)o1	-7%	-24	-2.2	-8	-20
Cc1nn(CCOc2ccccc2)c(=O)n1-c1ccc(Cl)cc1	4%	x	0.5	16	4
COc1ccc(N(CC(=O)NC2CCCC2)C(=O)CCC(=O)Nc2cc(C)on2)cc1	x	x	1.3	x	-4
CC1=CC(C)(C)N(C(=O)CSc2nnc(N)s2)c2ccccc21	7%	-1	-0.9	2	-4
CSCCCNC(=S)N(C)CC(=O)Nc1ccc(C)cc1	2%	x	1.2	2	-4
COc1ccc(S(=O)(=O)N2CCCC(C(=O)Nc3ccc4c(c3)OCCO4)C2)cc1 (configuration not stated)	0%	-10	5.2	-15	-2
COc1ccccc1CN1CCCC(CN(CCN(C)C)C(=O)C2CCCC2)C1 (configuration not stated)	x	x	-0.6	x	-9
Cc1coc2cc3oc(=O)c(CCC(=O)O)c(C)c3cc12	-16%	x	-3.0	x	-7
COc1ccc(OC)c(NC(=O)c2cccc(N3C(=O)C4C5CCC(C5)C4C3=O)c2)c1 (configuration not stated)	x	x	0.0	x	u
O=C1Nc2ccccc2C1(c1ccccc1)c1ccccc1	-4%	-33	2.9	-32	-10
COc1ccc(CN2CCN(Cc3ccc(Br)cc3)CC2)c(OC)c1OC	x	x	-0.8	x	7
COc1cc(NC(=O)Cn2cnc3sc(C)c(S(=O)(=O)N4CCOCC4)c3c2=O)cc(OC)c1OC	x	x	-1.5	x	1
CCOc1ccccc1CN1CCN(Cc2ccon2)CC1CCO (configuration not stated)	1%	x	-5.1	x	-6
Cc1cc(C)c(NC(=O)C2C3/C=C\CCCCC32)c(C)c1 (configuration not stated)	-14%	-24	x	2	98
Cc1ccc(C(=O)C2CCOC(C)(C)C2)cc1 (configuration not stated)	0%	x	-2.1	3	-11
O=C(COCCOCC(=O)N(c1ccccn1)C1CCCCC1)N(c1ccccn1)C1CCCCC1	-12%	2	1.0	4	-18	Arbovirus anti repeat=6
O=C(Nc1nnc(CCS(=O)(=O)c2ccc(Br)cc2)s1)c1ccc([N+](=O)[O-])cc1	-6%	-1	x	5	-4
COCc1cc(C)nc(N/N=C/c2ccc(-c3cc(C(=O)O)ccc3Cl)o2)c1C#N	-5%	x	-1.1	0	1
Clc1ccc(Cc2nn3c(Cn4nnc5ccccc54)nnc3s2)cc1	-1%	-34	4.6	4	1
COc1cccc(-c2nc(CS(=O)CC(=O)NCc3ccccc3Cl)c(C)o2)c1 (configuration not stated)	7%	-30	5.5	-8	-1	Arbovirus anti repeat=-11
CC(C)[C@H](NC(=O)c1ccccc1)C(=O)OCC(=O)/C=C1/N(C)c2ccccc2C1(C)C	12%	-22	7.1	4	2
O=C(NCCO)c1cc(-c2cc(C(=O)NCCO)c3ccccc3n2)nc2ccccc12	x	x	-1.2	x	6
COC(=O)CNC(c1ccccc1Cl)c1cc(Br)ccc1NS(=O)(=O)c1ccc(C)cc1 (configuration not stated)	-2%	-43	2.4	-5	1
CC(C)OP(=O)(O)NC(=O)c1ccccc1	4%	x	x	3	2
COc1ccc(Cl)cc1N(CC(=O)Nc1ccccc1C(=O)NCc1ccco1)S(C)(=O)=O	2%	-15	2.9	11	6
COC(=O)c1[nH]c2ccc(C)cc2c1NC(=O)CN1CCN(c2ccccc2)CC1	-2%	-27	2.2	-12	u
Cc1cccc2c(=O)c(-c3ccc4c(c3)OCO4)c(NC(=O)c3ccco3)oc12	x	x	0.5	x	10
Cc1cc(C)nc(NC(=NCCc2c[nH]c3ccccc23)NC(=O)Nc2ccccc2)n1	75%	-21	8.6	6	24
O=C(CSc1nc2ccc(Nc3nc(N4CCOCC4)nc(N4CCOCC4)n3)cc2s1)N1CCOCC1	11%	-24	-2.5	-23	0
CCCCCc1ccc(-c2ccc(/C=C/C(=O)O)cc2)nc1	24%	1	8.4	-24	87

An excerpt (hit frequency here may not be typical).
